gsp antagonist: antagonizes gsp, the McCune-Albright syndrome mutation | gsp-mutant cells, cAMP HTRF, 30 min; control for the full effect not named in the record | Potency, µM (doses to about 76.9 µM), without a hit: top-dose activity change, negative = inhibition, actives largely listed as inhibitors | actives 0.4% (n = 340,000) | AID 624288; active = falling curve of any shape with a large fitted effect; inconclusive = falling curve, mostly with a smaller effect; inactive = flat or rising curve; cell line not stated here;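 further: intracellular cAMP measured with PDE inhibitor Ro 20-1724 present during compound exposure; potency means the concentration at half of the fitted maximal effect; on the % scale 0 is the no-effect control and ±100 the full control effect; nearly all actives have a fitted effect of over 65% in size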
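HTRF cAMP read-out (cAMP-d2 plus anti-cAMP antibody-K in lysis buffer, 30 min RT). Before lysis, cells are exposed to compounds with […] for 30 min at 37C in DPBS containing Ca/Mg, BSA and Tween 20.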
Menin MLL FP FL: inhibitors of human menin-MLL interaction, wild-type MLL peptide | Fluorescence polarization, fluorescein-MLL peptide displacement from menin | FP activity change, % at 61.4 µM | 290,000 tested, under 10 active | AID 1766; inconclusive = falling polarisation curve, or a change in total fluorescence; inactive = total fluorescence flat and polarisation flat or rising; no compound was filed as active; the % refers to the polarisation; negative = inhibition;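 further: % of control where 0% means no effect; inhibitors lower the polarisation; unlabelled MLL peptide was the positive control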
ClpP mod: qHTS Assay for Activators of ClpP. actives 1.9% (n = 340,000). ATP-dependent Clp protease proteolytic subunit (Bacillus subtilis (strain 168)), P80244. purified B. subtilis ClpP, FRET peptide cleavage, 20 min. Potency, µM (titrated, usually from 57.5 µM), for inactives: at the top dose activity change, negative = active; active = well fitted falling curve with a large enough effect; inconclusive = small, poorly fitted or top-dose-only effect; inactive = no such curve, though single readings can be large or run the other way; further: potency means the concentration at half of the fitted maximal effect; the source files actives as falling curves though it sought activators and does not explain the sign; nearly all actives have a fitted effect of over 65% in size; many hits overshoot -100%
Target sequence (P80244 whole entry, looked up): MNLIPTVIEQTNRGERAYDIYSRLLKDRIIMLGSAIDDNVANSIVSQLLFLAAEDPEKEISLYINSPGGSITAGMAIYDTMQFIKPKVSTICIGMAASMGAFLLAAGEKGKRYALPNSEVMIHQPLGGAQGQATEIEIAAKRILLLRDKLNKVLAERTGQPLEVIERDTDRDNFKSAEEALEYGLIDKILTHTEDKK
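ClpP 10 microg/mL final, pH 8 Tris/KCl buffer with BSA, glycerol, Tween-20; compound pinned in; FRET-FV substrate; RT 20 min; Ex320/Em430; ΔFRET vs ADEP 5.8 microM, DMSO, no enzyme.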
TRPML1 inh: inhibitors of human TRPML1 channel. Q9GZU1. TRPML1-inducible cells, Ca2+ dye fluorescence, FDSS; hits give low values; inhibition of EC80 agonist-evoked calcium signal. activity change, negative = inhibition, % (concentration not given with the values). actives 0.02% (n = 390,000); in the data active means activity change below about -50%; inconclusive means about -30% to -50%; inactive means above about -30%;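 further: stimulus is agonist 54-4 at its EC80 concentration; on the % scale 0 is the no-effect control and ±100 the full control effect; compound concentration not given in the record; the text of the record puts the active cut at -80%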
Target sequence (Q9GZU1 whole entry, looked up): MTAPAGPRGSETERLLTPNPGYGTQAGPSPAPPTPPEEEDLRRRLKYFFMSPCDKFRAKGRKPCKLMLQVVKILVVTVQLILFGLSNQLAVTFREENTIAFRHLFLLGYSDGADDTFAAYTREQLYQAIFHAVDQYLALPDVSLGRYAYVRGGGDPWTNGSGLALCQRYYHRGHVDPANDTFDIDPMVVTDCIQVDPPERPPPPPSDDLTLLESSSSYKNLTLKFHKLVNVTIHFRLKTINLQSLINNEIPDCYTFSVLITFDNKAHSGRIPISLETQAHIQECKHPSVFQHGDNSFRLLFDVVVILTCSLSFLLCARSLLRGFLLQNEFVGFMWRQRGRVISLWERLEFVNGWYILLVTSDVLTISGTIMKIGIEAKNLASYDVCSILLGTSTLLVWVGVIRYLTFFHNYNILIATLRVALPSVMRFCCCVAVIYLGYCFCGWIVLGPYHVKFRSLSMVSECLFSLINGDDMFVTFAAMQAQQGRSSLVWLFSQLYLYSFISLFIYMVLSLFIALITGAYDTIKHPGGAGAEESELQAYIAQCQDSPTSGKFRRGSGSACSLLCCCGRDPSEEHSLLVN
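Calcium fluorescence in TRPML1-DL cells induced overnight with Tet: a 110 s read after compound pin addition, then a 110 s antagonist read after challenge with 54-4 at 4 uM final (EC80).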
TRPML1 ag: activates the human TRPML1 channel; Q9GZU1; TRPML1-expressing cells, Ca2+ dye fluorescence, FDSS; host cell line not named in the record; reference of the full effect not given here; activation, % (test concentration not listed); actives 0.12% (n = 410,000); AID 624414; in the data active = activation above about 50%; inconclusive = about 30% to 50%; inactive = below about 30%; further: 0% is about no effect; the text of the record puts the active cut at 80%
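Tetracycline-induced TRPML1-DL cells are seeded and incubated overnight before loading with a no-wash Ca2+ dye and quencher. Agonist activity is taken from the 110 s fluorescence read following compound pin-transfer on an FDSS, before EC80 54-4 challenge.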
gsp agonist: gsp mutant agonism | gsp mutant cells, cAMP HTRF, 30 min; control for the full effect not named in the record | actives 0.13% (n = 340,000) | Potency, µM (series often up to 76.9 µM), for the others: at the highest dose activation (cAMP increase), hits mostly activators | AID 624287; active = well fitted activation curve with a large enough effect; inconclusive = small, poorly fitted or top-dose-only effect, or another doubt; inactive = no such curve, though single readings can be large or run the other way; cell line not stated here;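 further: phosphodiesterase inhibitor Ro 20-1724 added with compounds to block cAMP breakdown; potency means the concentration at half of the fitted maximal effect; nearly all actives have a fitted effect of over 60% in size; about a fifth of the inactives were tested at one dose only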
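Cells in DMEM/10% FBS with G418 were pretreated with compounds in DMSO plus […] (300 uM stock) for 30 min at 37C. cAMP was measured by HTRF (cAMP-d2 plus anti-cAMP antibody-K) after 30 min at room temperature.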
The depositor's hits bear a star; ? = inconclusive; / = not tested or not shown; & = joins results of further samples; [ ] = another dose, or the depositor's remark. This is a random part of the collection; any-hit rate near 2.1%.

SMILES	gsp antagonist	Menin MLL FP FL	ClpP mod	TRPML1 inh	TRPML1 ag	gsp agonist
COC(=O)CCCC1=CC2=CC(=O)C(C)(OC(=O)c3cccs3)C(=O)C2=CN1Cc1ccccc1 (configuration not stated)	-5%	-0.9[11.7 µM]	-1.8%	-8	0.7	/
COc1ccc(N(C(=O)CNC(=O)c2ccco2)C(C(=O)NC2CCCC2)c2cccnc2)cc1 (configuration not stated)	-23%	-5.8	/	1	0.2	28%[15.4 µM]
CC1CCCN(S(=O)(=O)c2ccc(NC(=O)CCN3C(=O)c4ccccc4C3=O)cc2)C1 (configuration not stated)	-14%	5.9	-1.4%	2	-0.2	-10%
O=C(Nc1cccc(OC(=O)c2ccco2)c1)c1ccco1	-4%	2.8	0.7%	-6	-0.4	20%
Cc1ccc(C)c(N2CCN(C(=O)Cn3c(-c4cccs4)cc4ccccc43)CC2)c1	/	/	16µM*	3	0.6	/
CCOCC(=O)Nc1nc(C)cc(C)n1	9%	2.1	-3.5%	-2	0.8	-40%[inhibitor]
OC(c1ccc(Cl)cc1)c1nnc(-c2ccccc2)o1 (configuration not stated)	20%	0.7	0.4%	4	1.6	-9%
COc1ccc(CCNC(=O)c2cc(-c3ccco3)nc3ccccc23)cc1	-5%	/	-0.7%	7	0.2	9%[15.4 µM]
COc1ccc(-c2nnc(N(C)C(=O)c3cccnc3)s2)cc1	-10%	0.7	17%	-11	-0.5	4%
Cc1ccc2nc(NCCCN3CCOCC3)c(C=NCCCN3CCOCC3)c(=O)n2c1	5%	-1.7	19%	4	0.6	?
COc1ccc(CN(C)C(=O)c2ccccc2Sc2ccccc2C#N)c(OC)c1	-23%	/	1.2%	13	1.7	32%
Cc1ccc(S(=O)(=O)N(C)CC(=O)O/N=C(\N)c2ccccn2)cc1	3%	0.4	0.4%	-9	-1.0	-2%
CCOC(=O)N1CCN(C(=O)c2ccc3c(=O)n(Cc4ccc(OC)cc4)c(=S)[nH]c3c2)CC1	-21%	3.3	0.3%	-3	-1.0	-27%
CCCC(=O)NCC(c1ccc2c(c1)OCO2)N1CCN(c2ccc(F)cc2)CC1 (configuration not stated)	/	/	-2.6%	-2	1.4	/
CCC(=O)NC(Cc1ccccc1)c1nc2ccccc2[nH]1 (configuration not stated)	10%	-0.2	-0.7%	7	1.0	?
C=C(C)CSc1nnc(-c2ccccc2)n1N	8%	3.3	-21%	0	0.0	-6%[15.4 µM]
Cc1cc(C)cc(NC(=O)[C@@H](NC(=O)c2ccco2)C(C)C)c1	5%	2.2	/	-22	-0.5	0%[15.4 µM]
COc1ccc(/C=N/n2cnc3c(sc(=S)n3-c3ccccc3)c2=O)cc1	3%	-18	/	5	-0.3	-13%
CSc1ccc(CNC(=O)Cn2ccc3cc(S(=O)(=O)N4CCCC4)ccc32)cc1	/	/	0.1%	-19	2.5	/
Cc1ccc(C2C(C#N)=C(N)Oc3cc4c(cc32)OCO4)cc1 (configuration not stated)	?	-0.9	-1.4%	-11	-0.2	-31%[inhibitor]
COc1ccc(S[C@@H](CCN2CC[C@H](NC(=O)OCc3ccccc3)CCC2=O)c2ccccc2)cc1	-14%	/	-0.5%&-0.4%	35	0.5&0.6	/
CC(=O)c1ccc(OCC(=O)Nc2ccccc2N2CCCC2)cc1	-14%	/	-0.6%	-7	-0.2	1%
c1ccc(C2=NNC(=NCc3ccc4c(c3)OCO4)SC2)cc1	8%	0.1	0.5%	17	2.2	-46%[inhibitor]
Nc1ncnc2c1ncn2[C@@H]1O[C@H](CNCc2ccccc2)[C@@H](O)[C@H]1O	10%	/	-0.2%	31	0.7	/
C[C@@H](C(=O)O)[C@H]1C[C@]1(C)[C@H](NC(=O)OCc1ccccc1)c1ccccc1	0%	3.2&-1.4	0.0%	37	0.3	/
CCCCN(C)Cc1c(C)[nH]c2c(Cl)cccc2c1=O	-1%	1.6	-1.2%	-6	0.5	8%
O=C(Nc1ccccc1Cl)c1cc(=O)c2ccccc2o1	-7%	-3.2	0.2%	21	-0.2	-3%[15.4 µM]
CC1c2ccsc2CCN1C(=O)NC(=O)c1ccc(Cl)cc1 (configuration not stated)	7%	1.5	/	2	-0.2	-11%[15.4 µM]
O=C(O)c1ccc(NCc2nc3ccccc3n2Cc2ccccc2)cc1	-17%	3.4	/	1	-0.6	17%
CCOc1ccccc1N1CCN(C(=O)c2ccc3c(c2)OCO3)CC1	1%	/	-1.1%	-7	-0.5	-3%[15.4 µM]
COc1ccc(C(C(=O)NC2CCCC2)N(CCO)C(=O)Cn2nnc(-c3ccc(C)o3)n2)cc1OC (configuration not stated)	2%	0.3	/	-2	-0.1	19%
O=C(CSCc1c(Cl)cccc1Cl)NCC1CCCO1 (configuration not stated)	-4%	-1.1	-2.9%	-13	0.1	1%
O=C(Cc1ccsc1)N1CCc2c([nH]c3ccccc23)C1c1ccccn1 (configuration not stated)	3%	-5.2	/	-11	0.0	12%
COc1ccc(C)cc1NC(=O)c1ccc(=O)n(Cc2ccccc2)c1	/	/	-1.2%	-3	0.5	/
CC(=O)Nc1ccc(NC(=O)CN(C)CCC#N)cc1	14%	-1.5	-1.0%	3	-0.3	?
Cc1ccc(NC(=O)CN(C)C(=O)C(c2ccccc2)c2ccccc2)cc1	-15%	/	1.5%	-8	0.5	9%
c1ccc(-c2nc(N3CCCC3)nc3ccccc23)cc1	/	6.6	/	26	1.8	16%[15.4 µM]
COc1cc(-c2c(NC(=O)c3ccco3)oc3c(C)cccc3c2=O)cc(OC)c1OC	5%	/	/	3	0.3	?
CC1CC(C)CN(C(=O)c2ccc3ccccc3c2)C1 (configuration not stated)	-7%	/	3.7%	10	0.7	-6%[15.4 µM]
COc1ccc2nc(N/C(N)=N/C(=S)Nc3cccc(C)c3)nc(C)c2c1	-3%	-1.0	?	0	0.9	-30%
Cc1cccc(C)c1NC(=O)CN(C)C(=O)CSCc1c(C)noc1C	4%	/	-4.7%	6	-0.1	-57%
COc1ccccc1NC(=O)COc1ccc(CO)cc1Cl	6%[15.4 µM]	0.3	-0.2%	1	1.1	-21%
CCOP(=O)(/C(C#N)=C(\C)O)c1ccccc1 (configuration not stated)	-8%	3.5	-0.4%	-14	0.0	17%
O=C(CCn1ccc([N+](=O)[O-])n1)NC1CCCCCC1	2%	6.4	-3.2%	4	1.4	?
COc1ccccc1CN(CC(=O)NCc1ccco1)C(=O)CNS(=O)(=O)c1ccccc1	-4%	7.4	-1.0%	0	0.4	-22%
C=CCNC(=O)c1ccc(C2SCC(=O)N2Cc2ccco2)cc1 (configuration not stated)	-2%	-0.3	/	6	-0.3	-17%[15.4 µM]
COc1cccc(NC(=O)NCc2cccn2C)c1	6%	-0.3	-1.2%	-7	0.3	0%
C[C@@H]1CN([C@H](C)CO)C(=O)CCCn2cc(nn2)CO[C@H]1CN(C)S(=O)(=O)c1ccc2ccccc2c1	/	/	0.5%	14	-0.2	-14%
O=S(=O)(Nc1nnc(-c2ccccc2)s1)c1ccc(Cl)cc1	-20%	-1.8	-3.6%	-9	0.1	-22%
O=C(Nc1ccc(F)c(Cl)c1)C1CCCN1S(=O)(=O)c1ccc(F)cc1 (configuration not stated)	/	/	1.1%	-4	-1.3	/
O=C(O)c1cccc(N=C2NC(=O)C(CO)(CO)S2)c1	6%	-2.1	1.4%	-12	0.5	-3%[15.4 µM]
CCCCc1nn2c(=O)cc(COC(=O)c3ccccc3NC(=O)c3ccccc3OC)nc2s1	/	/	-5.3%	4	0.6	/
Fc1ccc(NC2=NCCCCC2)cc1	3%	2.2	/	-2	0.9	-2%[15.4 µM]
Cc1nc(SCC(=O)Nc2nsc(-c3ccc(C(C)(C)C)cc3)n2)c2c3c(sc2n1)CCCC3	/	/	-3.4%	-26	0.5	/
Cc1cc(SCc2ccc(Br)cc2)nc(=O)[nH]1	-2%	3.7	-0.1%	2	-0.1	10%
Cc1ccc(Cl)cc1N1CCN(CCCNC(=O)c2ccc3nc(N4CCCCC4)sc3c2)CC1	/	/	-0.4%	-1	-0.1	/
COc1cccc(NC(=O)c2ccc3nc(Cc4ccccc4)oc3c2)c1	/	/	-7.5%	50	0.8	/
CC1=CC2=NC(=O)CC(C)(C(=O)N(CC(=O)NC3CCCC3)c3cc(C)cc(C)c3)N2C=C1 (configuration not stated)	3%	3.3	4.0%	12	0.0	24%
O=C(CSc1nnc(-c2ccncc2)n1Cc1ccco1)c1ccc(Cl)cc1	-6%	1.7	-1.2%	22	1.3	?
N#CCNC(=O)C1c2ccccc2Oc2ccccc21	3%	-3.9	1.9%	18	1.3	-7%[15.4 µM]

An excerpt from above, showing only gsp antagonist, Menin MLL FP FL and TRPML1 inh:
molecule,gsp antagonist,Menin MLL FP FL,TRPML1 inh
COc1cccc(NC(=O)c2ccc3nc(Cc4ccccc4)oc3c2)c1,/,/,50
CC1=CC2=NC(=O)CC(C)(C(=O)N(CC(=O)NC3CCCC3)c3cc(C)cc(C)c3)N2C=C1 (configuration not stated),3%,3.3,12

Next entries follow:
SMILES	gsp antagonist	Menin MLL FP FL	ClpP mod	TRPML1 inh	TRPML1 ag	gsp agonist
Cn1c(=O)oc2cc(S(=O)(=O)NCCN3CCN(c4ccccc4)CC3)ccc21	6%	0.8	-0.1%	14	0.1	10%
COc1ccccc1C(=O)N1CCN(c2ccc(N3CCOCC3)nn2)CC1	8%	/	?	4	0.1	0%
Clc1ccc2nc(C(Cl)(Cl)Cl)[nH]c2c1	/	/	0.1%	?	0.0	33%
COc1ccc(NC(=O)c2nc3nc(C)cc(C(F)F)n3n2)c(C)c1	/	/	0.7%	-3	-0.4	/
Cc1ccc(CNc2nccn(-c3cc(C)cc(C)c3)c2=O)cc1	/	/	-26%	3	1.5	/
CC(=O)Nc1ccccc1NC(=O)C/C(C)=N/NC(=O)c1cccnc1	11%	0.2	/	-1	0.7	32%
CCC1CCCCN1S(=O)(=O)c1ccc2[nH]c(=O)ccc2c1 (configuration not stated)	11%	-0.1	-5.5%	3	-0.6	-57%
COc1ccccc1CNC(=O)COC(=O)Cc1ccc(Br)cc1	0%	/	-0.5%	-4	1.1	-25%[15.4 µM]
CCN(CC)S(=O)(=O)c1ccc(N2CCOCC2)c(NC(=O)c2nn(C(C)C)c(=O)c3ccccc23)c1	/	/	-1.8%	-15	0.6	?
Cc1cc(NC(=O)COC(=O)C(Cc2ccccc2)NC(=O)c2ccco2)no1 (configuration not stated)	-12%	4.8	2.5%	18	8.0	-17%

Compound profiles, from the list above:
`Cc1cc(NC(=O)COC(=O)C(Cc2ccccc2)NC(=O)c2ccco2)no1` (configuration not stated) is listed as gsp antagonist: -12%; Menin MLL FP FL: 4.8; ClpP mod: 2.5%; TRPML1 inh: 18; TRPML1 ag: 8.0; gsp agonist: -17%
`Cc1ccc(CNc2nccn(-c3cc(C)cc(C)c3)c2=O)cc1` is listed as gsp antagonist: /; Menin MLL FP FL: /; ClpP mod: -26%; TRPML1 inh: 3; TRPML1 ag: 1.5; gsp agonist: /
